# Screening data deposited in PubChem by National Center for Advancing Translational Sciences (NCATS).
# HSD17B inhib – blocks hydroxysteroid 17-beta dehydrogenase activity. Q99714. recombinant HSD17B10, NADH fluorescence kinetic; many of its hits are not listed in these tables. Potency, µM (highest dose often 57.1 µM), inactives show at the top dose activity change, negative = inhibition, usual class: inhibitors. 75,000 compounds, 7.6% hits. AID 893; active = well fitted inhibition curve with a large enough effect; inconclusive = small, poorly fitted or top-dose-only effect; inactive = no such curve, though single readings can be large or run the other way;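 also: the protocol describes HADH2 (HSD17B10) and not the HSD17B4 of the title; nearly all actives have a fitted effect of over 70% in size; most hits overshoot -100% by far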
#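 His-tagged E. coli-expressed HADH2 at 20 nM in 100 mM Tris-HCl pH 9.0 with 0.01 % Tween-20, preincubated 15 min with compound at room temperature. Reaction with 1 mM NAD+ and 90 uM beta-hydroxybutyryl coenzyme A; NADH fluorescence (360/450 nm) read kinetically over 4 min, last minus first point.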
# Starred values were filed as active, the others as inactive; ? = inconclusive; [ ] = dose if it differs, or a comment. % is scaled to controls: 0 for no effect and ±100 for the full control effect; potency is read from the fitted curve at half-maximal effect. Not all compounds are listed, so the mix of outcomes need not match the whole.
SMILES,HSD17B inhib
CN(CC(CC(=O)Nc1nncs1)c1ccccc1)S(=O)(=O)c1ccccc1 (stereo unspecified),-1.4%
CC(=O)/C(C(=N)N1CCN(C(c2ccccc2)c2ccccc2)CC1)=C(\C)O,8.9%
COc1ccccc1NC(=O)C1CCCN(S(=O)(=O)c2cccc3nsnc23)C1 (stereo unspecified),-7.1%
c1ccc(-c2nc(CSc3nnnn3-c3ccccc3)cs2)cc1,-21.8%
Cc1cc2ccccc2c(=O)n1CC(=O)Nc1ccc2c(c1)OCCO2,?
Cc1nc2ccccc2c2oc(C(=O)NCCCN3CCCC3=O)cc12,-17.5%
CCC(C)NC(=O)c1cn(C)c(=O)c2cc(OC)c(OC)cc12 (stereo unspecified),15.6%
CC(C)(C)n1ncc2c(=O)n(CC(=O)Nc3ccc4c(c3)OCCO4)cnc21,0.3%
Cc1ccc2nsnc2c1N(S(C)(=O)=O)S(C)(=O)=O,25.1µM*
CC1(C)Cc2ccccc2-c2nnc(SCc3ccc(C#N)cc3)n21,-3.2%
CCC1=C/C(=C\c2ccc3c(c2)OCO3)C(=O)S1,25.1µM*
O=S(=O)(CCCc1ccccc1)c1ncn[nH]1,10.7%
COc1ccc2cc(CN(CC3COCCO3)S(=O)(=O)c3ccccc3)c(=O)[nH]c2c1 (stereo unspecified),-63.5%
CN(C(=O)C12CC3CC(CC(C3)C1)C2)C1CCS(=O)(=O)C1 (stereo unspecified),-2.3%
O=C(CC(NS(=O)(=O)c1ccc(Cl)cc1)c1ccco1)NC1CCCC1 (stereo unspecified),-4.9%
O=C(NC1CCCCC1)n1c(=O)oc2cc(S(=O)(=O)N3CCCCC3)ccc21,0.6%
Cc1nnc(Nc2ccccn2)c2ccccc12,-2.9%
Cc1ccc2c(c1)sc1ncc(NC(=O)c3ccccc3)c(=O)n12,-4.6%
O=C(CNS(=O)(=O)c1ccc(Br)s1)N1CCCC1,1.2%
CCCSc1nnc(Cn2c(=O)sc3ccccc32)n1C,2.7%
CS(=O)(=O)N1CCN(C(=O)Cc2ccccc2)CC1,15.9%
O=S(=O)(NC1CC2CCC1C2)c1ccc2c(c1)OCCO2 (stereo unspecified),?
CCOC(=O)Cc1csc(NC(=O)c2c(-c3ccccc3)noc2C)n1,0.7%
O=C(O)c1cc(NC(=O)C2CCCO2)cc(NC(=O)C2CCCO2)c1 (stereo unspecified),1.6%
N#Cc1cc2ccccc2nc1SCc1cccnc1,-10.8%
CCOC(=O)N1CCN(C(=O)C(c2ccccc2)c2ccccc2)CC1,-9.8%
Cc1onc(-c2c(F)cccc2Cl)c1C(=O)Nc1ccc(S(=O)(=O)Nc2ncccn2)cc1,9.8%
Cc1nc2c(-c3ccc(F)cc3)c(C)nn2c(C)c1CCC(=O)N1CCN(c2ccccn2)CC1,-6.8%
CCOc1ccc(S(=O)(=O)NCCN2CCOCC2)c2ccccc12,-10.7%
Cc1ccccc1OCCCC(=O)Nc1ccc2c(c1)OCO2,-19.2%
CCN1CCN(CCNC(=O)C2CCN(Cc3nc(-c4ccc(Cl)cc4)oc3C)CC2)CC1,1.7%
Cc1ccc(C(=O)Nc2nnc(-c3ccncc3)s2)o1,?
CO[C@@H]1COC(=O)C/C=C\[C@@H](C)[C@H](OC)COC(=O)[C@@H](C)COC(=O)C/C=C\[C@H]1C,2.0%[11.4 µM]
N#Cc1cc2c(nc1SCC1COc3ccccc3O1)CCC2 (stereo unspecified),-24.8%
COc1ccc(C)cc1Nc1cc(C)nc2nc(C)nn12,0.2%
COc1ccc(C)cc1C(=O)CCC(=O)Nc1ccccc1N1CCOCC1,-2.2%
CC(=O)c1nc2ccccc2n1S(=O)(=O)c1ccc(C)cc1,?
CC(=O)N1CCc2cc(Br)cc(S(=O)(=O)N3CCN(c4ccccn4)CC3)c21,2.8%
CC(NC(=O)OCc1ccccc1)C(=O)NCC1CCCO1 (stereo unspecified),18.5%
CCOc1ccc(-c2noc(=O)[nH]2)cc1,12.8%
Brc1ccccc1-c1nnc2sc(Cc3ccccc3)nn12,-2.1%
COC(=O)C1OC(=O)C2O[C@@]23[C@]2(C)C(OC(C)=O)CC4C(C)(C)C(=O)CC[C@]4(C)C2CC[C@@]13C (stereo partly specified),-0.4%
CCOc1cc2[nH]c(=S)n(CCCC(=O)NCc3ccco3)c(=O)c2cc1OCC,-2.5%
O=C(c1ccccc1)N1CCN(C2CCCCCC2)CC1,3.7%
COC(=O)c1cc(-c2ccccc2)n[nH]1,7.1%
O=c1[nH]c(Cc2cccs2)nc2ccccc12,-6.7%
CCN(CC)C1=CC(=O)OC12CCCCC2,7.5%
O=C(Nc1cccc(N2CCCC2)c1)c1cccs1,-4.3%
O=C(Nc1c2c(nn1-c1ccc(F)cc1)CS(=O)(=O)C2)C12CC3CC(CC(C3)C1)C2,4.1%
Cc1c(C(=O)N2CCCC2)nnn1-c1nonc1N,12.1%
# The list goes on.
SMILES,HSD17B inhib
Cc1ccc(-c2nn3c(-c4ccco4)nnc3c3ccccc23)cc1S(=O)(=O)NCC1CCCO1 (stereo unspecified),-20.2%
Cn1c(-c2ccc(Br)o2)nc2cc(Br)ccc21,-27.7%
COc1ccc(C(C(O)C(=O)c2c[nH]c3ccccc23)N2CCN(c3ccccc3)CC2)cc1 (stereo unspecified),4.9%
CCCN1CCN(CCCNC(=O)CN2C(=O)COc3ccccc32)CC1,15.3%
CC(=O)Nc1ccc(S(=O)(=O)N2CCC(n3cnc4cc(F)ccc43)CC2)cc1,?
Cc1ccc(CNC(=O)c2ccc(Br)o2)cc1,-8.8%
O=C(CSc1ccc2nnc(-c3ccccc3)n2n1)N1CCN(c2ccccc2)CC1,-2.3%
CC(C)CCNC(=O)C1C2C=CC3(CN(Cc4ccccc4Cl)C(=O)C13)O2 (stereo unspecified),9.3%
CCOc1ccc2nc(NC3=NCN(Cc4ccco4)CN3)nc(C)c2c1,-26.9%
Cc1ccc2nc(-c3ccc(SCC(=O)O)nc3)[nH]c2c1,31.6µM*

# Copied from above (2 entries):
SMILES,HSD17B inhib
Cc1ccc(-c2nn3c(-c4ccco4)nnc3c3ccccc23)cc1S(=O)(=O)NCC1CCCO1 (stereo unspecified),-20.2%
Cn1c(-c2ccc(Br)o2)nc2cc(Br)ccc21,-27.7%

# (next part)
SMILES,HSD17B inhib
COc1cccc(OC)c1C(=O)Nc1ccc(CN2CCOCC2)cc1,-2.2%
CCC(C)[C@H](NC(=O)NC1CCCc2ccccc21)C(=O)O (stereo partly specified),2.5%
COc1cc(C(=O)OCC(=O)c2cc(C)n(C)c2C)cc(OC)c1OC,-4.0%
C=CCOc1ccc(C2c3c(oc4ccccc4c3=O)C(=O)N2CCCN2CCOCC2)cc1 (stereo unspecified),-3.5%
COc1ccccc1N1CCN(C(=O)CSc2nnc(NC(=O)C3CC3)s2)CC1,1.1%
COc1ccc(C)cc1NC(=O)CCN1CCCC1,4.3%
O=C(NCCOC(=O)c1ccc(Cl)c(S(=O)(=O)N2CCCCC2)c1)c1ccncc1,-14.7%
CC(C)(C)c1cc(NC(=O)c2cc(F)c(F)c(F)c2F)no1,1.0%
CN(C)c1ccc(CN(C)C2CCCCC2)cc1,-0.3%
COc1ccc(C2N(c3ccc(F)cc3)C(=O)C3CCCN32)cc1 (stereo unspecified),8.7%

# Taken from above:
# CC(C)(C)c1cc(NC(=O)c2cc(F)c(F)c(F)c2F)no1 in HSD17B inhib has 1.0%
# O=C(NCCOC(=O)c1ccc(Cl)c(S(=O)(=O)N2CCCCC2)c1)c1ccncc1 in HSD17B inhib has -14.7%
# COc1ccccc1N1CCN(C(=O)CSc2nnc(NC(=O)C3CC3)s2)CC1 in HSD17B inhib has 1.1%
# CCC(C)[C@H](NC(=O)NC1CCCc2ccccc21)C(=O)O (stereo partly specified) in HSD17B inhib has 2.5%

# New compounds follow
SMILES,HSD17B inhib
COCc1nnc(NS(=O)(=O)c2ccc(C)cc2)s1,24.6%
COC(=O)Cc1[nH]nc2c1C1(C(=O)N(Cc3ccccc3)c3ccccc31)C(C#N)=C(N)O2 (stereo unspecified),-18.5%
O=C(NCc1ccc2c(c1)OCO2)C1CCN(C(=O)Nc2ccc(Cl)cc2)CC1,-4.6%
CC1=C(C(=O)OC(C)C)C(c2ccncc2)n2ncnc2N1 (stereo unspecified),-4.6%
COc1ccc(S(=O)(=O)N2CCCC(C(=O)N3CCCCCC3)C2)cc1 (stereo unspecified),1.1%
CN1C(=O)CSc2ccc(NC(=O)N3CCN(c4ccccn4)CC3)cc21,31.6µM*
O=C(C1CCN(Cc2ccccc2)CC1)N1CCCC1,5.3%
COc1ccc(CNC(=O)c2csnn2)cc1,-11.4%
COC(=O)[C@@H]1C[C@@]2(O)[C@@H](O)[C@@H](O)[C@@H](O)C[C@H]2N1C/C=C/c1ccccc1,-0.4%
CSc1ncccc1C(=O)OCn1nnc2ccccc2c1=O,1.5%
CCOC(=O)c1ccc(N2C(=O)CC(N3CCC(O)(c4ccc(Cl)cc4)CC3)C2=O)cc1 (stereo unspecified),-12.0%
CC(=O)NC(Cc1ccc(C)cc1)C(=O)NC1CCN(C(=O)c2cnccn2)CC1 (stereo unspecified),16.8%
CCc1nnc(NC(=O)CSc2nnc3scc(-c4ccc(C)cc4)n23)s1,6.4%
CCn1c(SCC(=O)N2CCC(C(N)=O)(N3CCCCC3)CC2)nc2ccccc2c1=O,12.1%
CCN(CC)CCCCn1c(-c2ccccc2)nc2c(NC3CCCCC3)nc(C)nc21,25.1µM*
CCCCC(=O)Nc1cc(NC(=O)CCCC)cc(C(=O)O)c1,9.3%
Cc1oc2nc(SCCCC(=O)NCCO)nc(N)c2c1C,3.6%
CCc1nc(SCc2cccnc2)[nH]c(=O)c1C,-0.4%
CCOC(=O)CCCCC(=O)c1[nH]c(=O)[nH]c1CSc1nc2ccccc2[nH]1,8.2%
Cn1nnnc1SCc1csc(Nc2ccccc2)n1,-6.6%
CS(=O)(=O)Nc1cccc(-c2cc(Nc3ccccc3)ncn2)c1,1.7%
Cn1cnnc1SCCC(=O)Nc1ccccc1,8.0%
CCc1cc(-c2[nH]ncc2-c2ccc3c(c2)OCO3)c(O)cc1O,?
O=C(CSc1nnc(Cc2cccs2)n1Cc1ccco1)Nc1cc(Cl)cc(Cl)c1,-26.4%
CCOC(=O)c1cc(C#N)c(N)nc1C,31.6µM*
Cc1c(C#N)c2ccccc2n1CC(=O)O,-4.8%
CC(=O)NC1C(=O)Nc2c1cccc2C(F)(F)F (stereo unspecified),46.5%
O=C(NCc1ccncc1)c1cnccn1,3.8%
Cn1c(CNc2nc3ccccc3n2CCN2CCCCC2)nc2ccccc21,-16.4%
Cn1nnc(NC(=O)CSc2ccc(Cl)cc2)n1,-18.0%
O=c1c2cc(N3CCOCC3)ccc2[nH]c(=S)n1CCCN1CCCCC1,-11.4%
CCN1C(=O)CC(C(=O)NC)SC1=Nc1cc(Cl)c(O)c(Cl)c1 (stereo unspecified),1.4%
Cc1ccc(Cn2c(-n3nc(C)cc3C)nc3c2c(=O)[nH]c(=O)n3C)cc1,1.3%
Cc1ccn2c(NC3CCCCC3)c(C)nc2c1,1.3%
CCCn1c(C)cc(=O)c2cc(NC(=O)c3ccccn3)ccc21,7.8%
O=C(c1ccc(Cl)cc1)N1CCN(c2nc(N3CCCCC3)nc(N3CCCCC3)n2)CC1,2.5%
O=c1[nH]c(SCc2ccccc2Cl)nc2c1CCCC2,4.2%
CCN(CC)C(=O)Cn1cnc2c1c(=O)n(C)c(=O)n2C,24.3%
Cc1cc2nc(NC3=NCN(CCN4CCOCC4)CN3)nc(C)c2cc1C,-9.8%
CCOC(=O)c1sc2ncn(C(C)C(=O)OC)c(=O)c2c1C (stereo unspecified),-2.4%

# Three compounds already listed, ordered by length of the SMILES, descending:
SMILES,HSD17B inhib
CCN1C(=O)CC(C(=O)NC)SC1=Nc1cc(Cl)c(O)c(Cl)c1 (stereo unspecified),1.4%
Cc1cc2nc(NC3=NCN(CCN4CCOCC4)CN3)nc(C)c2cc1C,-9.8%
CCCn1c(C)cc(=O)c2cc(NC(=O)c3ccccn3)ccc21,7.8%

# Additional records
SMILES,HSD17B inhib
COCC(=O)N(C)C1(c2nnnn2CCOC(=O)Nc2ccc(Cl)cc2)CCCC1,11.1%
CCOC(=O)Nc1cccc(Cl)c1C,5.7%
CCn1c(SCC(=O)Nc2cc(OC)ccc2OC)nnc1C1CCCCC1,-8.3%
O=C(O)CCCC(=O)Nc1ccccc1Br,-5.1%
COCCN1CN=C(Nc2nc(C)c3ccc(C)cc3n2)NC1,-4.5%
CCOc1cc(NC(=O)C2CCCO2)c(OCC)cc1NC(=O)C1CC1 (stereo unspecified),-7.3%
N#Cc1nc(Cc2ccccc2)oc1NCCN1CCOCC1,4.3%
CCCN(CCC)CCNC(=O)C(NS(=O)(=O)c1ccc2c(c1)CCC(=O)N2)c1ccccc1 (stereo unspecified),4.8%
CCc1ccccc1NC(=O)CC(O)(C(=O)OC)C(F)(F)F (stereo unspecified),-3.1%
CCCc1c(OCCCOc2ccc(OCC(=O)O)cc2)ccc(CC=O)c1O,?
O=C(CSc1nnc(-c2ccc(F)cc2)o1)c1ccc2c(c1)OCCO2,2.2%
CCOC(=O)Nc1sc2c(c1C(=O)OCC)CCC2,-6.9%
O=C(Nc1ccccc1)N1CCCC2(CCN(C(=O)c3cccc(F)c3)CC2)C1,-0.8%
CCOC(=O)c1ccc(NC(=O)CSc2nnc(Cn3c(=O)sc4ccccc43)n2C)cc1,-4.7%
COC(=O)N1CCC2(CC1)CN(c1ccc(-c3ccccc3)cc1)C2,31.6µM*
CCCCOC(=O)Nc1ccc(S(=O)(=O)Nc2cc(C)nc(C)n2)cc1,7.5%
CN(C)c1nc2c(c(=O)n(C)c(=O)n2C)n1Cc1ccccc1,4.9%
